VDR inh: Inhibitors of the vitamin D receptor (VDR): qHTS. 0.93% of 400,000 active. Vitamin D3 receptor (Homo sapiens), P11473. Potency, µM, inactives show max response, negative = inhibition, usual class: inhibitors. AID 504847, 2011. VDR-SRC2-3 peptide fluorescence polarization, 2 h; active means well fitted inhibition curve with a large enough effect; inconclusive means small, poorly fitted or top-dose-only effect, or another doubt; inactive means no such curve, though single readings can be large or run the other way; further: series mostly up to about 120 µM
Target sequence (P11473 whole entry, looked up): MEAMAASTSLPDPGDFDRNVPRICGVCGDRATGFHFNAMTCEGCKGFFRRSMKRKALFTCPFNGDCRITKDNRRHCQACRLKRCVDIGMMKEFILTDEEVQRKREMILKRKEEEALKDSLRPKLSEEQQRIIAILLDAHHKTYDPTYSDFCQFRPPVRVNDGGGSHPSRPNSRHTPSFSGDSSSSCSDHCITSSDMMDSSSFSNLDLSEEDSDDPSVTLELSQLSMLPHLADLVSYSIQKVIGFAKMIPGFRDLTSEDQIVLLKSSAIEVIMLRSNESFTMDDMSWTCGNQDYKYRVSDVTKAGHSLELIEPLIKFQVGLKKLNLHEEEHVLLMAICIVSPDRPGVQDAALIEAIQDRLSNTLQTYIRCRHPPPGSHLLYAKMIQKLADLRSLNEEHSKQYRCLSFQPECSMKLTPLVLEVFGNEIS
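The screen uses fluorescence polarization to detect compounds that interfere with recruitment of the SRC2-3 coactivator peptide to VDR; plates are read after 2 h at room temperature.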
The depositor's hits bear a star; ? = inconclusive; & = joins results of further samples. On the % scale 0 is the no-effect control and ±100 the full control effect; potency means the concentration at half of the fitted maximal effect. These rows are one share of the data; rates above refer to the full screens.

structure	VDR inh
Cc1ccccc1OCC(=O)Nc1ccc(N2CCN(C(=O)C(C)C)CC2)c(Cl)c1	?
COc1ccc(NC(=O)Cn2c(C)cc3ccccc3c2=O)c(OC)c1	-4%
CCCCN(C(=O)c1cc(OC)c(OC)c(OC)c1)C1=CC2CCC(C1)N2C (stereo not given)	9%
O=C(CCS(=O)(=O)c1cccc2nonc12)NC1CCCCCC1	5%
Cc1ccc(C(=O)N/C(=C/C=C\c2ccccc2)C(=O)NCc2ccco2)cc1	-1%
CN(CCc1ccccc1)C(=O)c1ccc(NC(=O)Cc2ccc(NC(=O)C3CCCN(C(=O)C4CCCCC4)C3)cc2)cc1 (stereo not given)	1%
O=C1CCc2cc(S(=O)(=O)N3CCCCC3)cc3c2N1CC3	-3%
Cn1cccc1/C=N/n1c(-c2ccc(Cl)cc2)n[nH]c1=S	-17%
O=C(Nc1ccc(NC(=O)c2cccs2)cc1)c1ccc(Br)cc1	-13%
COc1ccc(NC(=O)CCC(=O)N/N=C/c2ccncc2)cc1	-4%
CCn1c(CCNC(=O)c2ccc(C)cc2)n[nH]c1=S	-6%
Cc1n[nH]c(C)c1CCC(=O)N/N=C/c1c(C)[nH]c2ccccc12	9%
COc1cc(C(C)=O)ccc1OCc1cn(CC(=O)c2ccc(O)cc2)nn1	89µM*
COc1ccc(S(=O)(=O)N(C)CC(=O)NCc2cccnc2)cc1Cl	-4%
CC(C)N(C(=O)[C@H]1C[C@H](CC(=O)NCCc2ccccn2)C(=O)N2CCc3c([nH]c4cc(-c5ccco5)ccc34)[C@]12C)C(C)C	-6%
COc1ccc2c(Cl)c(C(=O)OCC(=O)c3ccc4c(c3)NC(=O)CO4)sc2c1Cl	-3%
Cc1cc(=O)n2c(C(=O)Nc3ccc(C(=O)OC(C)C)cc3)c(C(=O)Nc3ccccc3)sc2n1	-1%
O=C(Oc1c(-c2ccccc2Cl)oc2ccccc2c1=O)c1ccc(Cl)cc1	-9%
O=S(=O)(c1cccc(F)c1)N1CCC(CO)(Cc2cccc(F)c2)CC1	7%
O=C(CC1c2ccccc2Oc2ccccc21)NCc1ccco1	2%
CCOC(=O)C1=C(C)NC(C)=C(C(=O)OCC)C1C(=O)OCC(=O)N1CCc2ccccc2C1	16%
COc1ccc(N(C)S(=O)(=O)c2cccc(C(=O)OCC(=O)N(C)c3ccccc3)c2)cc1	-13%
CCN(CC)c1ccc(NC(=O)Cn2c(C(C)NC(=O)c3ccccc3)nc3ccccc32)cc1 (stereo not given)	3%
CC1CC(C)CN(CCCNC(=O)CN2C(=O)COc3ccc(S(=O)(=O)N4CCOCC4)cc32)C1 (stereo not given)	-23%
C=CCN(CC=C)CCCOc1ccccc1C(=O)OC	-8%
CC(C)CNc1c(N)c(=O)oc2ccccc12	-2%
COc1ccc(-n2c(SCc3nc(-c4ccc(C)cc4)no3)nnc2-c2ccccc2)cc1	12%
C/C(Cc1ccccc1)=N\NC(=O)CNC(=O)COc1ccccc1	9%
Cc1ccc(-n2ncc(C(=O)NCCCN3CCc4ccccc4C3)c2C2CCN(C(=O)OC(C)(C)C)CC2)c(C)c1	1%
CN(CCCN1CCOCC1)C(=O)c1cc(COc2ccc(F)cc2F)on1	-9%
COCCCNC(=O)Cn1c(=O)n(-c2ccc(C)c(C)c2)c(=O)c2c3c(sc21)CCCCC3	-8%
Cc1cc(C)n(CCNS(=O)(=O)c2ccccc2)n1	6%
CCCCNS(=O)(=O)c1ccc(NC(=O)C2c3ccccc3Oc3ccccc32)cc1	-14%
CC(C)(C)NC(=O)NC(=O)CSc1n[nH]c(-c2ccccc2Br)n1	-16%
CCC(=O)Nc1c(-c2ccccc2Cl)c(=O)c2ccccc2n1CC	2%
Cc1ccc2nc(C)c3c(c2c1)COC3	-26%
CN1CCN(C2=NC3(CCCC3)C(C#N)C(=O)N2)CC1 (stereo not given)	3%
Fc1ccc(-c2nnsc2Sc2ccccn2)cc1	-1%
COc1cc(C)nc(NC(=O)NC(=O)c2ccc(C(F)(F)F)cc2)n1	-17%
Clc1cccc2sc(N3CCCC3)nc12	-9%
C#CCNC(=O)C1=C[C@H](C2CCCCC2)[C@@H](CCCO)[C@H](OCC)O1	-18%
Cn1c(CSc2nc3ccccc3s2)nnc1SCC(=O)NCCCN1CCOCC1	-3%
CC1CN(Cc2ccccc2Cl)CC(C)O1 (stereo not given)	-7%
CCCN=C1N(CC)C[C@@H]2[C@@H]3C(=O)N(C)C(=O)[C@@H]3[C@](C)(C(=O)OC)N12	2%
CCOC(=O)/C(C#N)=C1\CCCN1CC(N)=S	?
CC(=O)Nc1ccc(S(=O)(=O)N(C)CC(=O)OCC(=O)Nc2ccc3c(c2)OCO3)cc1	-1%
COC(=O)c1ccc(Oc2ccc3nncn3n2)cc1	11%
CC1CCN(c2nc3ccc(C(=O)NCc4ccccc4Cl)cc3s2)CC1	8%
Cc1cc2c(cc1S(=O)(=O)CCC(=O)NC1CCC(C)CC1)OCC(=O)N2 (stereo not given)	-2%&12%
Cc1ccc(/C=C(/NC(=O)c2ccccc2)C(=O)NCCc2c[nH]c3ccccc23)o1	-5%
COc1ccccc1NC(=O)CCS(=O)(=O)c1ccc2nc(C)sc2c1	5%
Cc1nc2ccccc2c(=O)n1-c1cccc(NC(=O)c2cccs2)c1	8%
COc1ccc(C(=O)NCC(=O)OCc2ccc([N+](=O)[O-])cc2)cc1	-6%
CCOC(=O)/C(C#N)=N/Nc1ccccc1OC	10%
COc1ccc(NC(=O)CN(C)S(=O)(=O)c2ccc3c(c2)CCC(=O)N3)c(OC)c1	-9%&10%
C(=N\N1CCN(C(c2ccccc2)c2ccccc2)CC1)/c1ccc2c(c1)OCO2	-27%
CCC(=O)Nc1cc(C(C)C)c(O)cc1C	2%
Cc1ccc(CNc2ccc(-c3nc(-c4ccccn4)no3)cc2[N+](=O)[O-])cc1	14%
COCCCN(C(=S)Nc1ccc(C)cc1Cl)C(C)c1ccncc1 (stereo not given)	11%
CSC1=NCCN1C(=O)c1ccc(Br)o1	7%

Six compounds already listed, ordered by number of heavy atoms, largest number first.
structure	VDR inh
Cc1ccc(CNc2ccc(-c3nc(-c4ccccn4)no3)cc2[N+](=O)[O-])cc1	14%
CC1CCN(c2nc3ccc(C(=O)NCc4ccccc4Cl)cc3s2)CC1	8%
Cc1nc2ccccc2c(=O)n1-c1cccc(NC(=O)c2cccs2)c1	8%
COC(=O)c1ccc(Oc2ccc3nncn3n2)cc1	11%
Fc1ccc(-c2nnsc2Sc2ccccn2)cc1	-1%
CCC(=O)Nc1cc(C(C)C)c(O)cc1C	2%

Remaining list, next part:
structure	VDR inh
O=C(Cn1[nH]c(=O)c2ccccc2c1=O)OCC(=O)N1CCCc2ccccc21	-10%
CN(C(=O)CSc1nc2ccc(Cl)cc2[nH]1)C1CCS(=O)(=O)C1 (stereo not given)	-1%
CCOC(=O)c1cnn(-c2ccccc2)c1NC(=O)CN1CCCCC1	-4%
COc1ccccc1OCc1ccc(C(=O)Nc2cc(OC)c(OC)c(OC)c2)o1	-13%
Cc1cccc(NC(=O)c2nc[nH]c2C(=O)N[C@@H](CC(C)C)C(=O)OC(C)(C)C)c1	-4%
Cc1cccc(N2CCN(CCCNC(=O)c3ccc(NC(=O)C4=CSCCO4)cc3)CC2C)c1 (stereo not given)	0%
COc1ccc(OCCn2c(=O)sc3ccccc32)cc1	-9%
O=C(/C=C/c1c(F)cccc1Cl)Nc1ccncc1	0%
Cc1nn(Cc2ccc(Cl)c(Cl)c2)c(C)c1NC(=O)c1cc(C2CC2)on1	-1%
Cc1ccc(Oc2cnn(-c3ccccc3)c(=O)c2Br)cc1	7%
Cc1ccccc1C(=O)Nc1nncs1	-3%
CC(CCn1cccn1)NC(=O)c1cc(COc2ccc(F)cc2Cl)on1 (stereo not given)	20%
N/C(=N\OC(=O)Oc1ccccc1)c1ccc(Cl)cc1	2%
O=C(O)CC1(CC(=O)Nc2ccc(F)c(Cl)c2)CCCCC1	-17%
COC(=O)C(Cc1ccccc1)NS(=O)(=O)c1ccc(F)cc1Br (stereo not given)	-5%&-18%&-13%
Cc1ccc(-c2nc3cc(C(C)C)ccc3o2)cc1NC(=O)c1cccs1	-10%
O=C(C1CCN(C2CCN(CC3CC=CCC3)CC2)CC1)N1CCOCC1 (stereo not given)	-3%
O=C(C1=C[C@H](c2ccc3c(c2)OCO3)C[C@H](OCCCCO)O1)N1CCN(Cc2ccccc2)CC1	2%
CCCCN(C(=O)NCCCCCCNC(=O)N(CCCC)C1CCS(=O)(=O)C1)C1CCS(=O)(=O)C1 (stereo not given)	6%
Cc1ccnc(NS(=O)(=O)c2cccs2)c1	-1%
CCOC(=O)Cn1c(=O)oc2cc(S(=O)(=O)NCCCc3ccccc3)ccc21	-7%
CCC1CCCCN1C(=O)c1ccc(OC2CCN(C(=O)CCOC)CC2)cc1 (stereo not given)	-25%
CN(C)/C=C/C(=O)c1ccc(-c2ccc(Cl)cc2Cl)o1	?
C/C(=N\Nc1nc(Nc2ccccc2)nc(N2CCOCC2)n1)c1cccs1	-4%
O=S(=O)(O)c1ccc(N=NNc2ccc(Br)cc2)cc1	-22%
COc1ccc2[nH]c(CN3CCN(CC=C(C)C)C(CCO)C3)c(C)c2c1 (stereo not given)	-9%
O=C1CC(N2CCN(c3ccc(O)cc3)CC2)C(=O)N1c1ccc2c(c1)OCO2 (stereo not given)	4%
CC(=O)/C(=N/Nc1ccccc1Cl)Sc1nnc(C(O)c2ccccc2)n1-c1ccccc1 (stereo not given)	-17%
COc1ccc(C(CC(=O)O)NC(=O)c2cccs2)cc1 (stereo not given)	4%
O=C(Nc1cccc(Cl)c1)C1CCN(c2nc3ccccc3nc2C(F)(F)F)CC1	9%

Some of the entries above, set out differently.
CCOC(=O)c1cnn(-c2ccccc2)c1NC(=O)CN1CCCCC1
- VDR inh = -4%

COc1ccccc1OCc1ccc(C(=O)Nc2cc(OC)c(OC)c(OC)c2)o1
- VDR inh = -13%

Continued.
canonical_smiles	VDR inh
Cc1cccc(N(C(=O)Cc2cccs2)C(C(=O)NC2CCCC2)c2ccsc2)c1 (stereo not given)	20%
COc1ccc(N2C(=NC(=O)C(C)Oc3ccccc3)SC3CS(=O)(=O)CC32)cc1 (stereo not given)	-10%
CCc1cccc(NC(=O)C(CC(C)C)NS(=O)(=O)c2ccc3c(c2)oc(=O)n3C)c1 (stereo not given)	3%
COc1ccc(/C=C2/C(=O)N(c3cccc(F)c3)N=C2C)c(OC)c1	-20%
O[C@@H](c1cc(C(F)(F)F)nc2c(C(F)(F)F)cccc12)[C@H]1CCCCN1	?
CCOC(=O)c1cc(C(=O)c2cc(F)ccc2O)coc1=N	0%
CCN(CC(=O)Nc1ccc2c(c1)OCCO2)c1ccc(S(=O)(=O)N2CCOCC2)cn1	14%
CCOC(=O)C1CCN(S(=O)(=O)c2ccc3c(ccn3C)c2)CC1	0%
Cn1c(-c2ccc(C(F)(F)F)cc2)cc2onc(-c3ccccc3)c2c1=O	3%
O=C1CC(NNC(=O)c2cccc(F)c2)C(=O)N1 (stereo not given)	-2%
CS(=O)(=O)c1cnc(-c2ccccc2)nc1Oc1ccc(Cl)cc1	-2%
Cc1ccc(CNc2ccc(O)cc2)cc1	20µM*
OCC1(CCOc2ccccc2)CCN(Cc2ccncc2)CC1	-4%
Cn1ncc(Br)c1C(=O)NCc1cccs1	-8%
CN1CCN(c2ccc([N+](=O)[O-])cc2NC(=O)c2cccs2)CC1	?

Reprinted from the listing (two entries):
canonical_smiles	VDR inh
Cc1ccnc(NS(=O)(=O)c2cccs2)c1	-1%
CCOC(=O)Cn1c(=O)oc2cc(S(=O)(=O)NCCCc3ccccc3)ccc21	-7%

The list continues.
canonical_smiles	VDR inh
CCC(=O)NC(=S)Nc1ccc(NC(=O)c2cccc([N+](=O)[O-])c2C)cc1	-6%
CCc1cccc(NC(=O)CN(c2ccc(C)cc2)S(=O)(=O)c2c(C)noc2C)c1	11%
CCCCn1c(SCC(=O)Nc2nccs2)nc2ccccc2c1=O	-3%
COC(=O)c1sccc1Oc1ccc(F)cc1[N+](=O)[O-]	0%
O=C(CC1NCCc2ccccc21)Nc1ccccc1 (stereo not given)	-3%
CC1CCCCN1C(=O)COC(=O)Cc1c[nH]c2ccccc12 (stereo not given)	-11%
COc1ccc2nc(-n3c(O)c(C4=c5ccccc5=NC4=O)[nH]c3=S)sc2c1	-22%
COc1ccc(NC(=O)C2(c3ccc(NC(=O)c4ccc(OC)cc4)cc3)CCCC2)cc1	0%
COc1ccc(C(c2nnnn2CC2CCCO2)N2CCC(C(N)=O)CC2)cc1 (stereo not given)	-2%
C/C(CC(=O)Nc1cc(Cl)ccc1Cl)=N\NC(=O)COc1cccc(C)c1	8%
Cc1ccc(C2=CC(c3ccccc3C)n3c(nc4ccccc43)N2)cc1 (stereo not given)	-11%
CCOC(=O)c1[nH]c(C)c(CCC(=O)NCc2ccc(OC(C)C)cc2)c1C	10%
COC(=O)C1=NNC(C(=O)OC)C1c1ccccc1 (stereo not given)	-8%
Cc1ccc(C(=O)Oc2coc(CSc3nnc(NC(=O)C4CC4)s3)cc2=O)cc1	-29%
CC(=O)C1=C(O)C(=O)N(c2ccc(Br)cc2)C1c1ccccc1[N+](=O)[O-] (stereo not given)	-18%
CCOc1ccc(N2CC(NC(=O)c3cc4ccccc4o3)CC2=O)cc1 (stereo not given)	7%
Cn1cncc1C#Cc1ccc2cc(CCO)oc(=O)c2c1	-20%

Screening data from PubChem BioAssay.
